# Sa growth inh – S. aureus growth inhibition at 42 and 30 °C, primary screen, LtaS inhibitor project, RN4220, two temperatures | OD600, 20 h, 42 °C; stronger effect = lower value | relative growth, % (concentration not given with the values) | 170,000 compounds, 0.53% hits | AID 720641, 2013;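 active = growth at 42 °C up to 50% and 20 or more points under that at 30 °C, or under 10% at both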;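 note: 300 nL library stock went into each well; scaled to the means of positive and negative controls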
# HCMV NEC inh – inhibitors of HCMV UL50-UL53 interaction, biochemical, HTRF; normalized percent inhibition; inhibition, % (concentration not given with the values); 190,000 compounds, 0.15% hits;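 active = both replicates at 50% or more, plus weaker picks with an unusually low signal ratio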;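 note: stock transfer was 100 nL into about 20 µL; 0% = negative control wells and 100% = wells with untagged competitor protein; inactives centre near -12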
# GIV-Gai inh – inhibitors of GIV peptide binding to Galpha-i3, primary screen, biochemical, fluorescence polarization, FITC-GIV GBA peptide, rat Galphai3; 90 min; stronger effect = lower value; scaled: aluminum fluoride 0%, vehicle 100%; Guanine nucleotide-binding protein G(i) subunit alpha-3 (Rattus norvegicus), P08753; percent of control (FP), % (no concentration beside the values); 210,000 compounds, 0.42% hits;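 active = replicate mean at 85% of control or lower, very high polarization wells dropped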;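 note: wells of about 15 µL received 100 nL stock; the first replicate is given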
# Target sequence (P08753 whole entry, looked up): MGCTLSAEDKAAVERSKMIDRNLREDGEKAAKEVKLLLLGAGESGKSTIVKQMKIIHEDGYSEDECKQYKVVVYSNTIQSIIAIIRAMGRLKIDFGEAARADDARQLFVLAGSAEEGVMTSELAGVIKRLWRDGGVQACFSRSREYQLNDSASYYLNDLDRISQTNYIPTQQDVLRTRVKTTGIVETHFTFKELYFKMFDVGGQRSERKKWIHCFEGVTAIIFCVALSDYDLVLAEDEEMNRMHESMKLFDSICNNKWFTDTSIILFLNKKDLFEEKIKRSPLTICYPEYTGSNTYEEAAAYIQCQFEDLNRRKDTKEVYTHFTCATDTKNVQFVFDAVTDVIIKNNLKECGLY
# Sa growth inh second temp – second read-out of Sa growth inh, no call of its own (marks repeat the call); relative growth, %; measured here: growth at 30 °C;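 optical density after 20 h as mean of two plates; 100% = untreated growth and lower means inhibition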
# Active calls of the source: *; . = not tested or not shown; & = joins results of further samples. Random draw from the library; 0.83% or so of the library scored in one or more.
SMILES,Sa growth inh,Sa growth inh second temp,HCMV NEC inh,GIV-Gai inh
O=c1[nH]c(SCc2c(F)cccc2Cl)nc2c1CCCC2,99,95,-11,98
COc1ccc(NC(=O)c2c(N)sc(-c3ccccc3)c2C)cc1,98,82,-6,95
C=CCOC(=O)c1c2nc3ccccc3nc2n2c1[nH]c(=O)c1ccc(C(=O)OC)cc12,88,76,12,110
CCOc1ccc(CCNC(=O)CSc2nnnn2-c2ccccc2Cl)cc1OCC,114,91,16,109
CN1C(=O)C(C)(C)c2cc(S(=O)(=O)NC3CCCCCC3)ccc21,101,94,4,104
CCC(C(=O)NC1CCCCC1)n1c(SCc2ccccc2F)nc2ccncc21 (stereo not given),116,80,-5,101
CS(=O)(=O)n1nc(OC(=O)c2cc(Br)ccc2Cl)cc1N,95,81,-22,100
CCOc1cc(CN)c(-n2cccc2)cc1OCC,115,85,-6,.
Cc1sc2nc(COC(=O)C(NC(=O)c3ccco3)C(C)C)[nH]c(=O)c2c1C (stereo not given),93,93,-21,.
COC(=O)c1ccc(C2C(Oc3ccc(OC)cc3)C(=O)N2Cc2ccc(F)cc2)cc1 (stereo not given),101,91,.,102
CCC(C)NC(=O)C1CCN(c2nc3ccccc3n3cccc23)CC1 (stereo not given),115,85,.,110
Cc1cc(C)cc(NC(=O)c2ccc3oc(=O)c(S(=O)(=O)c4ccc(F)cc4)cc3c2)c1,97,90,-34,99
CC(CNC(=O)c1cnn(-c2ccc(F)cc2)c1-n1cccc1)c1ccccc1 (stereo not given),94,106,.,99
O=C1c2ccccc2C(=O)N1CCSc1nnc(-c2ccco2)n1Cc1ccccc1,93,84,-23,.
CCc1ccc(-c2ccc(=O)[nH]n2)cc1S(=O)(=O)Nc1ccc(Br)cc1C,.,.,-23,104

# Results in Sa growth inh second temp (2 entries from above):
smiles,Sa growth inh second temp
CC(CNC(=O)c1cnn(-c2ccc(F)cc2)c1-n1cccc1)c1ccccc1 (stereo not given),106
O=C1c2ccccc2C(=O)N1CCSc1nnc(-c2ccco2)n1Cc1ccccc1,84

# Compound profiles (already shown).
# Results for CN1C(=O)C(C)(C)c2cc(S(=O)(=O)NC3CCCCCC3)ccc21 : Sa growth inh = 101; Sa growth inh second temp = 94; HCMV NEC inh = 4; GIV-Gai inh = 104
# Results for CS(=O)(=O)n1nc(OC(=O)c2cc(Br)ccc2Cl)cc1N : Sa growth inh = 95; Sa growth inh second temp = 81; HCMV NEC inh = -22; GIV-Gai inh = 100

# Later entries
SMILES,Sa growth inh,Sa growth inh second temp,HCMV NEC inh,GIV-Gai inh
O=C1C(=Cc2c[nH]c3ccccc23)C(=O)c2ccccc21,101,99,10,.
COc1ccc([C@H]2[C@@H](C(=O)O)c3ccccc3C(=O)N2Cc2ccc3c(c2)OCO3)cc1,100,94,-7,.
O=C1CCN(C(=O)c2cccc(CN3C(=O)c4ccccc4C3=O)c2)CC1,101,93,-37,.
CC(C)n1nnnc1SCC(=O)NC(=O)NC1CCS(=O)(=O)C1 (stereo not given),93,97,2,.
COc1cc(/C=N/c2c(-c3ccc(O)c(OC)c3)nc3ccccn23)ccc1O,90,79,-51,.
O=C(O)c1ccc(CSc2nnc(-c3ccco3)o2)cc1,109,88,-4,99
COc1cc(OC)c(OC)cc1/C=C/c1nc2cc3ccccc3cc2c(=O)n1-c1ccc(F)cc1F,105,77,.,115
Fc1ccc(CN2CCCC2c2ccc(Cl)cc2)c(F)c1 (stereo not given),.,.,-25,103
CCOC(=O)c1c(N)sc2c1-c1ccccc1C2,96,66,-24,108
CCc1nc2ccc(C(=O)NCc3cn[nH]c3C)cc2nc1CC,102,90,-20,98
Cc1c(NC(=O)NCc2ccccc2)c(=O)n(-c2ccccc2)n1C,122,92,.,104
NCCCc1cn[nH]c1,64,89,1,101
CC(C)c1ccc2c(c1)c(SC(C)(C)C)c(CC(C)(C)C(=O)O)n2Cc1ccc(Cl)cc1,93,86,-16&-16&-38&-20,101
Cc1nc(CC(=O)Nc2c(C)cccc2C)cs1,.,.,-16,114
COc1ccc(CCNC(=O)c2ccc(Cn3c(=O)c4ccccc4n(Cc4ccc(F)cc4Cl)c3=O)cc2)cc1OC,104,89,-19,104

# 4 compounds already listed, arranged by SMILES length, ascending.
SMILES,Sa growth inh,Sa growth inh second temp,HCMV NEC inh,GIV-Gai inh
Fc1ccc(CN2CCCC2c2ccc(Cl)cc2)c(F)c1 (stereo not given),.,.,-25,103
CCc1nc2ccc(C(=O)NCc3cn[nH]c3C)cc2nc1CC,102,90,-20,98
Cc1c(NC(=O)NCc2ccccc2)c(=O)n(-c2ccccc2)n1C,122,92,.,104
COc1cc(/C=N/c2c(-c3ccc(O)c(OC)c3)nc3ccccn23)ccc1O,90,79,-51,.

# Later entries:
SMILES,Sa growth inh,Sa growth inh second temp,HCMV NEC inh,GIV-Gai inh
CCOc1ccc(CCNC(=O)c2sc3nc4n(c(=O)c3c2C)CCCC4)cc1,98,87,-19,100
CCn1c(=N)c(C(=O)NCc2ccccc2)cc2c(=O)n3ccccc3nc21,91,84,-137,109
O=C1CCCN2N=C(SCC(=O)NCc3ccc(F)cc3)SC2=N1,.,.,-25,105
CN(C)S(=O)(=O)c1ccc(=O)n(Cc2ccc(-n3ccnc3)cc2)c1,89,82,-13,.
COc1ccc(-c2nc(=O)c3ccccc3o2)cc1,114,80,.,98
COC(OC)c1ccc(C#N)c(SCc2ccccc2)n1,100,83,2,105
CC(Sc1nc(=O)cc(N)n1CCc1ccccc1)C(=O)Nc1ccc(Cl)cc1 (stereo not given),111,98,.,104
CCN(CC)CCNC(=O)CN(C)c1nn2c(NC3CCCC3)c(-c3ccc(OC)cc3)nc2s1,.,.,-23,104
CCSc1nn(CC(=O)Nc2ccccc2CC)c(N)c1S(=O)(=O)c1ccc(OC)cc1,.,.,-17,97
CCCOc1ccc(CNC(=O)c2ccc(C)c(-n3c(C)nc4cccnc43)c2)cc1,111,89,.,106
Cc1ccc(OCC(=O)O)cc1,128,90,-9,.
O=C(N(c1ccccc1)c1ccccc1)n1cncn1,100,90,-15,107
O=C1c2ccccc2-c2nc3nonc3nc21,53,24,36,49*
Cn1cnnc1SCC(=O)N(c1ccccc1)c1ccccc1,98,91,0,105
CCN(CC)CCNc1ncnc2c1cnn2-c1cc(Cl)ccc1C,113,95,.,104
CNS(=O)(=O)c1ccc(NC(=O)c2ccccc2C(=O)O)cc1 (tested in a mixture with another compound),96,88,-44,.
CC(=O)c1ccc(NC(=O)c2cc(-c3ccccc3C)nc3ccccc23)cc1,.,.,-12,105
COc1ccc(Cl)cc1Nc1c(C(=O)N2CCCCC2)cnc2ccc(F)cc12,.,.,-24,98
O=c1oc(-c2cccc(Cl)c2)nc2scc(-c3ccc(Br)cc3)c12,.,.,-13,99
CC1=NN(CCc2nc(-c3ccc(Cl)cc3)cs2)C(=O)C1,92,89,13,.
CCOC(=O)c1ccc(N2C(=O)c3[nH]nc(-c4ccccc4)c3C2c2ccc(C(C)C)cc2)cc1 (stereo not given),107,84,-5,107
Nc1ncnc2c1ncn2C1OC(C(=O)O)C(O)C1O (stereo not given),100,87,-18,108
COc1cccc(OCc2cc(=O)n3cc(C)sc3n2)c1,106,91,-14,100
CC(=O)N1c2ccc(S(=O)(=O)NCC3CCC(C(=O)Nc4ccccn4)CC3)cc2CC1C (stereo not given),.,.,-11,108
COC1(NC(=O)c2ccc(C)cc2)C(C)=CC(=O)C=C1C,93,80,-20,108
CCOc1cccc2c(C)nc(Nc3nc4c(c(=O)[nH]3)CCCC4)nc12,105,96,4,109
COc1ccc(N=C2SCC(=O)N2CCc2ccc(OC)c(OC)c2)cc1,102,91,-7,104
N/C(CS(=O)(=O)Cc1ccc(F)cc1)=N\O,127,87,-28,104
CCC(C)NC(=O)C1CCN(c2ncnc3oc(C)c(C)c23)CC1 (stereo not given),.,.,-29,99
COc1ccc(CCNC(c2ccc(F)cc2)c2nnc(-c3ccccc3Cl)o2)cc1OC (stereo not given),97,71,-11,100
CCN1CCN(C(=O)CC2(C(F)(F)F)OCCO2)CC1,75,94,11,.
CCN(CC)C(=O)c1c(-c2ccccc2)c(-c2ccccc2)nn(C)c1=O,93,86,-26,101
NC(=O)CS(=O)(=O)c1nc2ccccc2n1Cc1ccccn1,77,85,-32,112
COC(=O)c1sc2ccccc2c1S(=O)(=O)NCc1ccco1,94,85,-45,100
CCc1ccccc1NC(=O)C1CCCN(c2cnccn2)C1 (stereo not given),109,90,-14,98
O=C1CCCN1C(=O)CN1CCCCC1,102,105,-27,99
CCOC(=O)c1nc(-c2cccc(-n3cccc3)c2)no1,104,82,0,100
Cc1ccc(C)c(Cn2nc(C)c3c(C)onc3c2=O)c1,.,.,-40,106
CC1CCCCC1NC(=O)/C(C#N)=C/c1ccc2c(c1)OCCO2 (stereo not given),75,83,-15,.
CC(C)N1C(=O)N(c2ccccc2)C(=O)C1CC(=O)Nc1ccccc1 (stereo not given),100,87,-19,98
CCC(=O)OCc1cc(F)cc2c1OC(c1ccccc1)OC2 (stereo not given),97,94,-3,.
Cc1cccc(SCC(=O)Nc2ccc3c(c2)OCCO3)c1,81,83,-6,.
COc1ccc(-c2ccc3c(N)c(C(=O)Nc4cc(F)ccc4C)sc3n2)cc1,102,114,-1,113
COc1ccc2c(c1OC)C(=O)O[C@@H]2[C@H]1c2c(cc3c(c2OC)OCO3)CCN1C,.,.,-5&-5&-6,99
COc1ccc(CC(=O)N(C)c2ccccc2)cc1,104,76,-2,103
CC1CCN(Cc2c(F)cccc2F)CC1,95,93,-2,103
COc1cc(C(=O)O)cc(Br)c1OC,102,98,-8,101
O=C(c1ccc(Cl)cc1)c1cn(Cc2ccccc2)c2cc3c(cc2c1=O)OCCO3,98,84,14,100
O=c1oc(-c2ccco2)ns1,108,72,-1,107
O=C1CCCC(O)=C1N=Nc1ccc(Cl)c(Cl)c1,96,93,-45,.
O=C(NC(=O)c1cccc(=O)o1)Oc1ccccc1,106,101,-20,99
CC(=O)N1CCCc2cc(S(=O)(=O)N3CCCCC3)ccc21,101,83,.,100
COC(=O)c1cnn(-c2cccc(C)c2)c1N,.,.,-18,99
COC(=O)c1cc(S(=O)(=O)N2CCCC2C(=O)N2CCOCC2)cn1C (stereo not given),.,.,-7,103
Cc1nc2ccn(Cc3cccnc3)c(=O)c2cc1C(=O)N1CCN(c2ccccc2F)CC1,91,85,.,95
CN(C)C=Nc1ccc(S(=O)(=O)N(C)c2nccs2)cc1,91,102,0,105
CC1CCN(C(=O)CSc2nc3c(c(=O)n2Cc2ccccc2)SCC3)CC1,.,.,-8,105
Cc1nn(-c2ccccc2)c2nc(-c3cccs3)cc(C(=O)NC(C)(C)C)c12,83,95,-12,.
CCOC(=O)c1cn[nH]c1S(=O)(=O)Nc1cccc(C)c1C,.,.,-29,105
Fc1ccc(CNC2CCCC2)cc1,104,82,-28,103

# New compounds follow
SMILES,Sa growth inh,Sa growth inh second temp,HCMV NEC inh,GIV-Gai inh
CC(C)NCc1ccc(-c2ccccc2)o1,.,.,0,109
Cc1c(C(=O)CSc2ncc(C#N)c(N)n2)c2ccccc2n1C,71,89,3,107
O=C(Cn1ncc2c3ccccc3n(Cc3ccc(F)cc3)c2c1=O)NCc1cccs1,94,88,-18,101
Cc1ccc(NC(=O)c2ccccc2-n2cccc2)cc1,92,97,7,.
COc1cc(C=Nc2ccc(C)cc2)ccc1OC(C)=O,107,92,.,102
CC(CCc1ccccc1)NC(=O)Cn1c(=O)nc(-c2ccccc2)c2cc(Cl)ccc21 (stereo not given),97,90,.,100
Cc1cc2[nH]c(=O)[nH]c2cc1NC(=O)Nc1ccc(Cl)cc1,.,.,-25,104
Cc1cc2c(cc1S(=O)(=O)Nc1ccc(OC(F)(F)F)cc1)OCC(=O)N2,82,106,.,107
Cn1nc(C(C)(C)C)cc1C(=O)Sc1ccccc1,102,101,-2,109
CCc1ccc(C2C(C(=O)Nc3ccccc3OC)=C(C)Nc3c(C(=O)Nc4ccc(C)cc4)cnn32)cc1 (stereo not given),96,91,.,97
Cc1cnc(C(=O)OCC(=O)c2ccc(Cl)s2)cn1,103,89,-5,.
COc1ccc(C=NN2CCN(Cc3ccccc3)CC2)c(OC)c1OC,103,118,-10,101
Cc1ccc2c(c1C)NC(=O)CC2c1ccc(O)cc1 (stereo not given),97,81,0,105
CCOC(=O)c1cc2c(C)nn(-c3ccccc3)c2s1,103,96,-13,101
CCN(C(=O)CSc1nc2nc(C)cc(C)n2n1)c1ccccc1,95,75,-22,104

# Three entries from above, sorted by their value in GIV-Gai inh, highest first.
Structure,Sa growth inh second temp,GIV-Gai inh
CCN(CC)CCNc1ncnc2c1cnn2-c1cc(Cl)ccc1C,95,104
O=C(Cn1ncc2c3ccccc3n(Cc3ccc(F)cc3)c2c1=O)NCc1cccs1,88,101
O=C(O)c1ccc(CSc2nnc(-c3ccco3)o2)cc1,88,99

# The list goes on:
SMILES,Sa growth inh,Sa growth inh second temp,HCMV NEC inh,GIV-Gai inh
CCS(=O)(=O)N1Cc2ccccc2CC1C(=O)NC1CCCCCC1 (stereo not given),100,109,8,.
COC(=O)C1=C(CSc2nnc(N)s2)NC(=O)NC1c1cccc(OC)c1 (stereo not given),85,84,.,102
COc1ccc(Br)cc1Cn1nnc(C(=O)Nc2ccc(C)cc2C)c1N,113,82,-5,107
COc1ccc(N=C2C(=O)N(CN3CCOCC3)c3ccccc32)cc1,88,78,-32,111
